Compound activity (PubChem)
MLL AF4-AF9 inh: blocks AF4 peptide binding to human AF9 | AlphaScreen, biotin-AF4 peptide binding to FLAG-AF9 | inhibition, % at 10 µM | 350,000 compounds, 0.47% hits | AID 651704;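 active means every replicate reaching a set inhibition limit, whatever the replicate mean, cut at about 25% in these data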;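 further: 0% = plate neutral control median and 100% = total signal loss; the record names both 10 and 1 µM as test concentration; the first replicate is given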
Target sequence (P42568 whole entry, looked up): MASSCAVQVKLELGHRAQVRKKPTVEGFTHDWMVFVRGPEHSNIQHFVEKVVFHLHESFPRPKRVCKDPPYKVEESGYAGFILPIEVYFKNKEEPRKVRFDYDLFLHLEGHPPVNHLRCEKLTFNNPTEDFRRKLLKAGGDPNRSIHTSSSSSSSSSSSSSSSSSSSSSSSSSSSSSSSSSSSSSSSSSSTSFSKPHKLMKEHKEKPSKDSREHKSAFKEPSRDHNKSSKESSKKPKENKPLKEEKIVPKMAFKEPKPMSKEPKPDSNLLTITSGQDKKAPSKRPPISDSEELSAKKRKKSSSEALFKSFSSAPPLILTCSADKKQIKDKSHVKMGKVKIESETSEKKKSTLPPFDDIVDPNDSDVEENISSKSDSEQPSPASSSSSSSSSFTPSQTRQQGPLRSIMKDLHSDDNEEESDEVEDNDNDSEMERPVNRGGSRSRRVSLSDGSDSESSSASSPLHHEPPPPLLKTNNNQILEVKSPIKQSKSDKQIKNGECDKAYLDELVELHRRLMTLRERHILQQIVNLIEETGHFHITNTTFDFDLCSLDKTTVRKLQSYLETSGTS
FGF22 binding: shifts melting point of recombinant human FGF22. Q9HCT0. recombinant FGF22 thermal shift, SYPRO orange fluorescence; percent of sucrose octasulfate shift, DMSO zero. calls only at 9.99 µM. 340,000 compounds, 1.5% hits;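 active means melting point raised past a set limit in the mean and every replicate; three in four hits are not shown here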
Target sequence (Q9HCT0 whole entry, looked up): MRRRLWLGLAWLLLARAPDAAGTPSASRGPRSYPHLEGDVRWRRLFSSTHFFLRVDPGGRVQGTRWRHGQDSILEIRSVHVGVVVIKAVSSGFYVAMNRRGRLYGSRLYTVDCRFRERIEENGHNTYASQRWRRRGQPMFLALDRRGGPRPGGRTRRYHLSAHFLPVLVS
rRNA inh HTS: selective bacterial rRNA inhibition in E. coli. E. coli WT GFP vs humanized-ribosome RFP mutants, fluorescence, 24 h; stronger effect = lower value; DMSO median 0, no signal -100. 350,000 compounds, 1.6% hits. GFP signal change (wild-type ribosome), % (no concentration beside the values);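 active means significant combined selectivity score with lowered wild-type GFP, culture density cut under 30%, mutant RFP and density less affected; inactive means any of these conditions unmet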; further: one replicate is shown; some compounds called inactive have numbers as strong as hits
rRNA inh HTS OD600: recorded beside rRNA inh HTS, whose call it bears; OD600 change, %; measured here: OD600 growth;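 optical density of the mix in the first replicate; 0 = DMSO median and -100 = no signal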
rRNA inh HTS RFP: recorded beside rRNA inh HTS, whose call it bears; RFP signal change, %; measured here: RFP humanized mutant strains;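 first replicate; 0 = DMSO median and -100 = no signal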
Numbers without * were called inactive; i = inactive. An excerpt; rates above refer to the full screens.

MLL AF4-AF9 inh | FGF22 binding | rRNA inh HTS | rRNA inh HTS OD600 | rRNA inh HTS RFP | mol
-3.0 | i | 11 | 10 | 0.6 | CCCCN1C(=O)C(CC(=O)NCc2cccs2)CC(C(=O)N(C)C)=C1C (configuration not stated)
-1.5 | i | -1 | -1 | 0.5 | CNC(=O)C[C@@H]1CC[C@H]2[C@H](COc3ccc(NC(=O)Nc4ccccc4)cc3C(=O)N2C)O1
4.3 | i | -5 | -7 | 0.2 | C[C@H]1CCCCO[C@H](CN(C)C(=O)Nc2ccc3c(c2)OCO3)[C@@H](C)CN([C@@H](C)CO)C(=O)c2cc(NC(=O)Nc3ccc(F)cc3)ccc2O1
-3.1 | i | 2 | -1 | -0.2 | Cc1c(C(=O)NCc2ccc(C(F)(F)F)cc2)sc(=O)n1Cc1cccc(F)c1
-0.1 | i | -2 | -1 | -3.1 | COc1ccc(NC(=O)N2C[C@@H](O)COC[C@H]3O[C@@H](CC(=O)NCc4ccccc4OC)CC[C@@H]32)cc1
-7.9 | i | 1 | 5 | -1.3 | Cc1ccc(S(=O)(=O)N[C@H]2CC[C@H](CCNC(=O)C3CCOCC3)O[C@@H]2CO)cc1
-1.5 | i | 3 | 8 | 0.1 | C[C@@H]1CCCCO[C@H](CN(C)C)[C@@H](C)CN([C@H](C)CO)C(=O)c2cc(NS(=O)(=O)c3cccs3)ccc2O1
-1.2 | i | -7 | -7 | 3.0 | CCCN1[C@H](C(=O)NC2CCC2)[C@@H](CO)[C@@H]2Cn3c(ccc(-c4ccccc4F)c3=O)[C@@H]21
-2.7 | i | 1 | 2 | -3.7 | COc1ccc(-c2cnc3c(c2)C(=O)N([C@H](C)CO)C[C@@H](C)[C@@H](CN(C)C(=O)CN(C)C)O3)cc1
-1.7 | i | 3 | -1 | -0.2 | CO[C@@H]1CN(C)C(=O)c2ccc(NS(C)(=O)=O)cc2OC[C@@H](C)N(C(=O)C2CCOCC2)C[C@@H]1C
-9.6 | i | 2 | -6 | -0.9 | CO[C@H]1CN(C)C(=O)c2cc(NS(=O)(=O)c3cccc(Cl)c3)ccc2OC[C@H](C)NC[C@H]1C
2.4 | i | 0 | 0 | -1.2 | CC(C)C#Cc1ccc2c(c1)O[C@H](CN(C)C(=O)CC1CC1)[C@H](C)CN([C@H](C)CO)S2(=O)=O
0.1 | i | 2 | 0 | -2.6 | O=C1NC(Cc2ccc(O)cc2)c2nc3ccc(F)cc3c(=O)n2-c2ncccc21 (configuration not stated)
-1.3 | i | 4 | 9 | -1.1 | O=C(NCc1ccccc1)OC1CC2CC1[C@H]1CCCCN1C2=O (some centres not stated)
-2.9 | i | 1 | 6 | -2.2 | COc1ccc(S(=O)(=O)N(C)C[C@@H]2Oc3ccc(NC(=O)CCCN(C)C)cc3CC(=O)N([C@H](C)CO)C[C@H]2C)cc1
-2.3 | i | 1 | -1 | -5.3 | C[C@@H]1CN([C@H](C)CO)C(=O)c2cc(C#CCc3ccccc3)cnc2O[C@@H]1CN(C)C(=O)C1CC1
-0.4 | i | 0 | 4 | 6.5 | CCCNC(=O)C1(C)CCN(Cc2ccc(OC)c3ccccc23)C1 (configuration not stated)
-0.9 | i | 12 | 5 | 5.5 | CC(OC(=O)Cc1n[nH]c(=O)c2ccccc12)C(=O)Nc1ccc(S(N)(=O)=O)cc1 (configuration not stated)
0.9 | i | 1 | -3 | 1.1 | C[C@H]1CN([C@@H](C)CO)C(=O)c2cc(NC(=O)Nc3ccc(C(F)(F)F)cc3)ccc2O[C@H]1CN(C)S(C)(=O)=O
-1.7 | i | 2 | 5 | -1.5 | O=C(C[C@H]1C=C[C@@H](NS(=O)(=O)c2cccc(F)c2)[C@@H](CO)O1)NCc1ccc2c(c1)OCO2
4.2 | i | -1 | -3 | -3.1 | COc1ccc(NC(=O)Nc2ccc3c(c2)C(=O)N([C@H](C)CO)C[C@H](C)[C@H](CN(C)CC2CCCCC2)O3)cc1
-0.7 | i | 5 | 15 | -3.8 | O=C(NCC1CC1)[C@H]1[C@H](CO)[C@H]2Cn3c(ccc(-c4cccnc4)c3=O)[C@@H]1N2C(=O)C1CCC1
2.0 | i | 0 | 2 | -3.8 | C/C=C/c1cnc2c(c1)C(=O)N([C@H](C)CO)C[C@H](C)[C@@H](CN(C)Cc1ccccc1F)O2
7.2 | i | 0 | -5 | 0.0 | CC(NNC(=S)N1CCCCCC1)c1ccc2ccccc2n1 (configuration not stated)
2.7 | i | -13* | -16* | 7.6* | O=C(C(=O)N1CCC(CNS(=O)(=O)c2ccccc2)CC1)c1cc2ccccc2o1
1.6 | i | 20 | 6 | 0.3 | COC(=O)[C@@]12C[C@@H](CC(=O)NCC3CCCCC3)C(=O)N(CCc3ccc(OC)c(OC)c3)C1=CCC(C)(C)C2
-0.5 | i | -63 | -81 | -18 | CC(O)(c1cccc(F)c1)c1nc(-c2ccccc2)cs1 (configuration not stated)
-2.5 | i | 5 | 6 | -0.4 | Cc1nc(NC(=O)COC(=O)c2cccs2)c(Cl)cc1Cl
3.2 | i | -11 | -9 | -0.4 | COc1cc(-c2nccc3cc4c(cc23)OCO4)cc(OC)c1OC
-0.3 | i | -1 | 4 | -2.0 | C[C@H]1CN([C@@H](C)CO)C(=O)c2cccc(NS(=O)(=O)c3ccc(Cl)cc3)c2O[C@@H]1CN(C)C(=O)Nc1cccc2ccccc12

Profiles, looked up by structure. Values in the order: MLL AF4-AF9 inh, FGF22 binding, rRNA inh HTS, rRNA inh HTS OD600, rRNA inh HTS RFP
`O=C(NCC1CC1)[C@H]1[C@H](CO)[C@H]2Cn3c(ccc(-c4cccnc4)c3=O)[C@@H]1N2C(=O)C1CCC1` is listed as -0.7, i, 5, 15, -3.8
`O=C(C(=O)N1CCC(CNS(=O)(=O)c2ccccc2)CC1)c1cc2ccccc2o1` is listed as 2.7, i, -13*, -16*, 7.6*

Additional compounds.
MLL AF4-AF9 inh | FGF22 binding | rRNA inh HTS | rRNA inh HTS OD600 | rRNA inh HTS RFP | mol
-2.5 | i | 3 | -6 | -1.1 | COCCNC(=O)C[C@H]1C[C@H]2c3cc(NC(=O)Nc4ccccc4)ccc3O[C@H]2[C@@H](CO)O1
-1.6 | i | -2 | -8 | 3.1 | Cc1ccc(S(=O)(=O)N2[C@H](CC(=O)c3ccccc3)OC[C@@H]2C(C)C)cc1
-9.9 | i | 23 | 8 | 22 | O=C(NCCN1C(=O)S/C(=C/c2cccnc2)C1=O)c1ccc(S(=O)(=O)N2CCCC2)cc1
-6.2 | i | 5 | 2 | -1.6 | O=C(N[C@H]1C=C[C@@H](CC(=O)N2CCOCC2)O[C@H]1CO)c1ccccn1
-0.2 | i | -2 | 2 | 0.7 | CCC(=O)N(CC)C[C@@H]1[C@@H](c2ccc(-c3cccnc3)cc2)[C@H](CO)N1C(C)=O
-5.5 | i | -32 | -31 | 2.1 | Cc1cccc(-c2ccc([C@H]3[C@H](CO)N4CCCCN(S(=O)(=O)c5cccs5)C[C@@H]34)cc2)c1
-0.8 | i | 1 | -6 | -0.1 | C[C@@H]1CN([C@H](C)CO)C(=O)c2cccc(NC(=O)C3CCCCC3)c2O[C@H]1CN(C)C(=O)Nc1ccccc1
0.7 | i | 0 | -2 | -4.5 | O=C(C[C@@H]1CC[C@@H]2[C@H](COC[C@@H](O)CN2C(=O)c2ccccn2)O1)NC1CCC1
1.3 | i | 8 | 13 | 1.9 | COc1ccc(C(=O)COC(=O)C2COc3ccccc3O2)c(OC)c1 (configuration not stated)
1.5 | i | 2 | 11 | -0.5 | CN1C(=O)c2cc(NC(=O)C3CCOCC3)ccc2OC[C@@H]2O[C@@H](CC(=O)NCCc3ccncc3)CC[C@H]21
4.9 | i | 6 | 15 | 0.9 | CN(C)CCNC(=O)c1cccc(-c2cnc3c(NC=O)cc(-c4ccc(C(=O)N5CCOCC5)cc4)cn23)c1
-2.8 | i | 4 | 15 | -1.3 | C[C@H]1CN([C@@H](C)CO)C(=O)CCCn2cc(nn2)CO[C@@H]1CN(C)Cc1ccncc1
-1.3 | i | 2 | 4 | -0.2 | CO[C@H]1CN(C)C(=O)c2cc(NC(=O)C3CCCCC3)ccc2OC[C@H](C)NC[C@H]1C
-0.7 | i | 1 | 0 | -4.3 | Cc1noc(C)c1S(=O)(=O)N(C)C[C@H]1Oc2ccc(NC(=O)CCC(F)(F)F)cc2CC(=O)N([C@H](C)CO)C[C@H]1C
-0.5 | i | 2 | -5 | -2.7 | C[C@@H]1CN([C@@H](C)CO)C(=O)Cc2cc(NS(C)(=O)=O)ccc2O[C@@H]1CN(C)C
1.4 | i | 6 | 18 | 3.7 | COC(=O)Cc1ccc(OC2(C)CCN(Cc3ccc4c(c3)OCCO4)C2)cc1 (configuration not stated)
-3.2 | i | 16 | 17 | 0.2 | O=C(O)c1nnsc1-c1csnn1
-0.5 | i | 2 | 7 | -2.5 | COc1ccc(NC(=O)Nc2ccc3c(c2)C(=O)N([C@H](C)CO)C[C@@H](C)[C@@H](CN(C)S(=O)(=O)c2ccccc2)OCCCC[C@H](C)O3)cc1
-2.1 | i | 4 | 10 | -5.2 | C[C@H](CO)N1C[C@H](C)[C@H](CN(C)C(=O)C2CCOCC2)Oc2ncc(-c3ccccc3)cc2C1=O
-1.8 | i | -3 | 3 | 1.7 | COc1cccc(C#Cc2ccc([C@H]3[C@@H](C#N)N[C@@H]3CO)cc2)c1
-1.7 | i | 0 | 2 | -6.3 | C[C@H](CO)N1C[C@H](C)[C@@H](CN(C)S(=O)(=O)c2ccc(Cl)cc2)Oc2c(NC(=O)C3CCOCC3)cccc2C1=O
0.6 | i | 5 | -2 | -0.4 | COc1ccc(CN2C[C@H](COCc3ccccc3)Oc3cccc(Oc4ccc(C(C)C)cc4)c3S2(=O)=O)cc1
-0.5 | i | -2 | 7 | -9.4 | Cn1c(=O)c2[nH]c(CCCCc3nc4ccccc4[nH]3)nc2n(C)c1=O
5.8 | i | -24 | -55 | 12 | Cc1ccccc1S(=O)(=O)N1C[C@H](O)COC[C@@H]2O[C@H](CC(=O)N3CCC(Cc4ccccc4)CC3)CC[C@H]21
5.2 | i | -2 | -4 | 5.5 | CC(C)CC#Cc1cnc2c(c1)C(=O)N([C@H](C)CO)C[C@H](C)[C@@H](CN(C)Cc1ccccc1)O2
-3.0 | i | -2 | 5 | 0.0 | CCn1nccc1NC(=O)c1csc([C@@H]2C[C@H](O)[C@@H](CO)O2)n1
-3.7 | i | 2 | 10 | 11 | CCc1nc2ccc(C(=O)NCCCN3CCCC3=O)cn2c1N(C)Cc1ccc(OC)cc1
-3.6 | i | -16 | -17 | 3.1 | Cc1cc(C)cc([C@H]2C[C@]34CN(Cc5ccccc5)S(=O)(=O)[C@H]3C[C@H]2O4)c1
3.3 | i | -4 | -7 | 2.9 | C[C@@H]1CCCCO[C@H](CN(C)C(=O)Nc2cccc3ccccc23)[C@H](C)CN([C@@H](C)CO)C(=O)c2cc(NC(=O)c3ccncc3)ccc2O1
4.4 | i | -4 | -5 | 4.0 | COc1ccccc1CNC(=O)c1cc(-c2ccc(F)cc2C)n[nH]1

Reprinted from the part before: 4 entries, then new ones.
MLL AF4-AF9 inh | FGF22 binding | rRNA inh HTS | rRNA inh HTS OD600 | rRNA inh HTS RFP | mol
-3.7 | i | 2 | 10 | 11 | CCc1nc2ccc(C(=O)NCCCN3CCCC3=O)cn2c1N(C)Cc1ccc(OC)cc1
-3.6 | i | -16 | -17 | 3.1 | Cc1cc(C)cc([C@H]2C[C@]34CN(Cc5ccccc5)S(=O)(=O)[C@H]3C[C@H]2O4)c1
3.3 | i | -4 | -7 | 2.9 | C[C@@H]1CCCCO[C@H](CN(C)C(=O)Nc2cccc3ccccc23)[C@H](C)CN([C@@H](C)CO)C(=O)c2cc(NC(=O)c3ccncc3)ccc2O1
4.4 | i | -4 | -5 | 4.0 | COc1ccccc1CNC(=O)c1cc(-c2ccc(F)cc2C)n[nH]1
-9.4 | i | 5 | 15 | -2.5 | C[C@H]1CN([C@@H](C)CO)C(=O)c2cc(-c3cncnc3)cnc2O[C@H]1CN(C)C(=O)Cc1cccnc1
3.5 | i | 6 | 1 | -1.9 | COc1ccc(NS(=O)(=O)c2ccc(N3CCOCC3)c(NC(=O)/C=C/C(=O)O)c2)cc1
0.2 | i | 12 | 18 | -1.4 | Cc1nc2ccc(NC(=O)C3(C)CCCN(C(C)C)C3)cc2o1 (configuration not stated)
-0.7 | i | -1 | 5 | 0.3 | CO[C@@H]1CN(C)C(=O)c2cc(NS(C)(=O)=O)ccc2OC[C@@H](C)N(Cc2nccs2)C[C@H]1C
0.1 | i | 0 | -13 | -1.9 | O=C(/C=C/c1ccccc1)Nc1cccc(C(=O)NCCCCc2ccccc2)c1
-6.3 | i | -58 | -75 | -13 | COCC(=O)N1CCCCN2[C@H](C1)[C@@H](c1ccc(C#Cc3ccccc3)cc1)[C@@H]2CO
-2.0 | i | -6 | -18 | 6.1 | CC(=O)c1cccc(-c2ccnc3c2CC(C(=O)Nc2cccc(NS(C)(=O)=O)c2)O3)c1 (configuration not stated)
-1.5 | i | 4 | 12 | -2.0 | CC1(C(=O)NS(=O)(=O)c2ccc3c(c2)CCO3)CCN1C(=O)COc1ccc(Cl)cc1 (configuration not stated)
3.2 | i | -1 | 3 | 4.6 | COc1ccc(NC(=O)Nc2ccc3c(c2)C(=O)N([C@@H](C)CO)C[C@@H](C)[C@@H](CN(C)Cc2ccccc2)OCCCC[C@H](C)O3)cc1
-0.3 | i | 14 | 7 | 6.4 | CCN1C[C@@H]2[C@@H]3C(=O)N(C)C(=O)[C@@H]3[C@](C)(C1=O)N2C(=O)c1ccc(C(F)(F)F)cc1
